# High-throughput results (PubChem)
# GLA inh pH 4.5: qHTS Assay for Inhibitors of Human alpha-Galactosidase at pH 4.5; AID 1467, 2008; purified enzyme, 4-MU-alpha-Gal fluorescence, pH 4.5; Alpha-galactosidase A (Homo sapiens), P06280; activity change, negative = inhibition, % at 105 µM; 230,000 tested, under 10 active; inconclusive = small, poorly fitted or top-dose-only inhibition, or a rising curve; inactive = flat fitted curve, though single readings scatter; no compound was filed as active;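 also: 0% = full activity with enzyme and -100% = basal without enzyme; dose as in the result columns while the protocol names 77 µM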
# Rango complex inh: qHTS Assay for Inhibitors of Rango (Ran-regulated importin-beta cargo) - Importin beta complex formation | Rango CFP/YFP FRET sensor + importin beta, 45 min | 340,000 tested, 0.031% active | Importin subunit beta-1 (Homo sapiens), Q14974 | Potency, µM (series often up to 92.2 µM), for the others: top-dose inhibition of complex formation; active = rising FRET ratio curve, often small or poorly fitted; inconclusive = mostly compound fluorescence or quenching in the first reads; inactive = flat curves in all reads;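 also: potency is read from the fitted curve at half-maximal effect; 0% = DMSO wells and 100% = buffer wells lacking importin beta; nearly all actives have a fitted effect of over 15% in size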
# Target sequence (Q14974 whole entry, looked up): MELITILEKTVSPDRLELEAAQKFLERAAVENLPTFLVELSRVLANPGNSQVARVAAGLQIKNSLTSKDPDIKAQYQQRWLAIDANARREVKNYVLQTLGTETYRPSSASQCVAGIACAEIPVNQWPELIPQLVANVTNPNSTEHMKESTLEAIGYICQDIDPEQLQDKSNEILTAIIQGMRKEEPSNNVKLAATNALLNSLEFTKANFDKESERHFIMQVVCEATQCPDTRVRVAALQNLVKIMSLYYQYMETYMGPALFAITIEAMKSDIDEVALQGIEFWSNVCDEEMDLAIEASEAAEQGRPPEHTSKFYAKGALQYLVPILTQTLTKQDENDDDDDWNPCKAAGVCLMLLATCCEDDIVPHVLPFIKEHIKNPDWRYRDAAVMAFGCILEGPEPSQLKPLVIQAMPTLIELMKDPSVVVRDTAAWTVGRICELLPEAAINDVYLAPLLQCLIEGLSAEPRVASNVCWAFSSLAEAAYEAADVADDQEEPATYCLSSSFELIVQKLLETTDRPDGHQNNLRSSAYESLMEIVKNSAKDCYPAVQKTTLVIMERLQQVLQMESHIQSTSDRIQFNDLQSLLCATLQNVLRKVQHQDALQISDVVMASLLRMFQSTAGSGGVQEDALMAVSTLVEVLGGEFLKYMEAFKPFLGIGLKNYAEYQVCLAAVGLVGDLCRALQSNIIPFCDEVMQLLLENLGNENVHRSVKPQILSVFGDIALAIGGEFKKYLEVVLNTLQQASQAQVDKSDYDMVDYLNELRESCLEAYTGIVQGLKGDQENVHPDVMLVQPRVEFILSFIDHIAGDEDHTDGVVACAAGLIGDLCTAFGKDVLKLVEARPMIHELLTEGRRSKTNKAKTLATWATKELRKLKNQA
#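 Inhibition scored from the CFP 486 nm/YFP 530 nm FRET ratio 45 min after adding 0.125 microM importin beta to 50 nM Rango biosensor preincubated 5 min with compound (room temperature, PBS with DTT, Tween-20, BSA). No-importin wells as positive control.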
# Rango dissoc inh: qHTS Assay for Inhibitors of RanGTP induced Rango (Ran-regulated importin-beta cargo) - Importin beta complex dissociation | Snurportin-1 (Homo sapiens) + GTP-binding nuclear protein Ran (Homo sapiens) + Importin … | Biochemical FRET Rango-importin beta, RanGTP-induced dissociation | Potency, µM (top dose mostly 46.1 µM), for the others: at the highest dose activity change, negative = inhibition | 340,000 tested, 0.071% active | AID 540253, 2011; active means falling FRET ratio curve, often poorly fitted, with flat reads before Ran was added; inconclusive means other falling curves, or compound fluorescence or quenching; inactive means flat or rising ratio curve;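 also: potency is read from the fitted curve at half-maximal effect; % of control where 0% means no effect; nearly all actives have a fitted effect of over 45% in size; -100% = wells without RanGTP and RCC1; the record marks most hits as doubtful in a second field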
#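 Rango FRET biosensor (snurportin-1 IBB flanked by N-terminal EYFP and C-terminal CFP10) at 0.1 uM, with 0.25 uM importin beta in PBS, 1mM DTT, 0.02% Tween-20, 0.1% BSA. 0.6 uM Ran, 2mM GTP and 0.2 uM RCC1 were then added for 45 min at room temperature. Inhibition read as loss of FRET rise.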
# miR-21 FLuc: qHTS Assay for Modulators of miRNAs and/orActivators of miR-21 | HeLa miR-21 FLuc reporter, luciferase, 48 h | Potency, µM (series often up to 38.3 µM), for inactives: at the top dose reporter change, positive = more light | 340,000 tested, under 10 active | AID 2288, 2010; active = well fitted rising curve with a large enough effect; inconclusive = small, poorly fitted or top-dose-only effect; inactive = no such curve, though single readings can be large or run the other way;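 also: % of control where 0% means no effect; miR-21 action dims this reporter so a rising signal means less miR-21 action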
#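 HeLa cells stably expressing CMV-driven firefly luciferase with a downstream miR-21 binding sequence, endogenously expressing miR-21, were treated with titrations (up to about 40uM final) for 48 hours at 37 degree Celsius. Luciferase luminescence was read after lysis.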
# Starred values were filed as active, the others as inactive; ? = inconclusive; . = not tested or not shown.
SMILES,GLA inh pH 4.5,Rango complex inh,Rango dissoc inh,miR-21 FLuc
CCN(CC(=O)NC(C)(C)C)C(=O)c1ccc2c(c1)S(=O)(=O)c1ccccc1C2=O,11.7,-0.9%,0.0%,-13.0%
CC(C)[C@@H](CO)NC(=O)c1ccc2c3n(nc2c1)-c1ccccc1CO3,2.2,-0.8%,0.8%,-6.6%
Cc1ccc(S(=O)(=O)N2C[C@@H]3[C@H]4CC[C@H](C4)[C@@H]3[C@@H](C)[C@H]2c2ccco2)cc1,.,-3.2%,8.0%,.
CC(C)(C)OC(=O)NCCCC[C@H](NC(=O)c1nc[nH]c1C(=O)N[C@@H](CCCCNC(=O)OC(C)(C)C)C(=O)OC(C)(C)C)C(=O)OC(C)(C)C,?,3.7%,2.1%,21.9%
COc1ccc(/C=N/NC(=O)c2sccc2OCc2ccc(F)cc2)cc1OC,-0.5,2.2%,5.8%,-7.0%
Cc1ccc(NC(=O)c2ccc3c(c2)N(CC(=O)NC(C)C)C(=O)C(C)(C)O3)cc1,.,-1.8%,20.1%,0.9%
N#CC1=C(N)Oc2c(oc(CO)cc2=O)C1c1ccccc1[N+](=O)[O-] (stereo not given),-0.7,?,-19.7%,0.0%
O=C(c1nc2ccccn2c1CN1CCC(Cc2ccccc2)CC1)N1CCCC1,0.7,3.3%,8.9%,-7.7%
COc1ccc(C(=O)NC(=S)NNC(=O)c2c(-c3ccccc3)noc2C)cc1OC,11.3,-1.3%,-3.4%,12.0%
CC(C)NC(=O)c1ccc2c(c1)N(CC(=O)N1CCCCC1)C(=O)C(C)(C)O2,.,-0.9%,-5.8%,0.4%
CN1CCN(CCCCOc2ccc(Br)cc2)CC1,.,-0.1%,24.4%,-13.2%
O=C(NCC1CCCO1)c1c(O)c2ccccc2[nH]c1=O (stereo not given),-5.4,1.8%,2.5%,-8.8%
Cc1ccc(N=CC2=C(O)CC(c3cccc(Cl)c3)CC2=O)cc1 (stereo not given),-15.9,5.2%,-14.9%,-4.3%
COC(=O)c1ccc(N2C(=O)C3CC=CC(C)C3C2=O)cc1 (stereo not given),-3.3,0.3%,1.2%,0.5%
Cn1c(=O)c2ncn(CC(=O)N/N=C/C=C/c3ccccc3)c2n(C)c1=O,6.7,-0.6%,3.0%,3.7%
CC(C)(CNC(=O)CC1C(=O)NCCN1Cc1cccc(F)c1)N1CCOCC1 (stereo not given),.,-7.9%,8.6%,0.6%
Cc1noc(C)c1C(=O)Nc1ccc(C#N)cc1,.,-1.8%,-16.3%,2.1%
CCc1ccc([C@@H]2CC=C(C(=O)O)[C@H](c3ccc(C)cc3)N2S(=O)(=O)c2ccc(C)cc2)cc1,.,3.2%,7.8%,.
Cc1ccc(C(=O)NC(=S)Nc2ccc(NC(=O)c3cccc(Cl)c3)cc2)cc1,7.3,-3.2%,11.1%,8.0%
CC(=O)N1CCN(c2nc(C)nc3sc4c(c23)CCC(C)C4)CC1 (stereo not given),-18.5,-0.7%,1.4%,-12.6%
O=C(CSc1n[nH]c(=O)n1C1CC1)c1c[nH]c2ccccc12,.,-1.0%,-0.2%,.
COc1ccc2c3c(c(=O)oc2c1OCC(=O)O)CCCC3,3.4,0.1%,29.3%,-7.9%
CCOc1cc(/C=N/NC(=O)c2ccc(CN3CCOCC3)cc2)ccc1OC,-16.2,4.7%,-6.1%,0.9%
COc1cc(/C=C2/SC(=Nc3ccc(O)cc3)NC2=O)ccc1O,-9.3,?,?,3.5%
C=CCOC(=O)C1C(=O)CC(C)(O)C(C(=O)OCC=C)C1c1ccc(N(C)C)cc1 (stereo not given),5.8,3.8%,19.2%,3.3%
SMILES,GLA inh pH 4.5,Rango complex inh,Rango dissoc inh,miR-21 FLuc
Cc1cc(C)n(-c2nc(C(=O)O)cs2)n1,0.3,4.6%,9.6%,-0.7%
COc1ccccc1/C=C/C(=O)c1ccccc1,-6.0,3.8%,25.1%,0.1%
Cc1nnc(SCC(=O)N(Cc2ccccc2)C(C)(C)C)[nH]c1=O,11.9,1.8%,-2.4%,0.6%
O=C(CSc1ncn[nH]1)NCc1ccc(Cl)cc1,.,-1.8%,8.8%,-6.9%
Cc1ccc(NC(=O)/C=C/c2ccc([N+](=O)[O-])s2)cc1,2.4,-13.4%,0.731µM*,-13.4%
Cc1ccc(Sc2ncccc2COC(=O)Nc2c(C)cccc2C)cc1,-3.3,-3.9%,?,-13.0%
Cc1ccc2c(c1)[C@@H]1[C@H](CO2)[C@H](c2ccccc2)[C@]2(C)C(=O)N[C@H](C)C(=O)N12,.,1.8%,-8.6%,.
CN(c1ccccc1)S(=O)(=O)c1ccc(C(=O)NCc2ccccc2F)cc1,.,-1.0%,10.4%,.
ClCc1nnc(-c2cc3c(s2)CCCC3)o1,5.3,2.9%,9.5%,11.6%
COc1ccccc1NC(=O)/C=C/C(=O)O,-2.0,-0.8%,-4.0%,-3.3%
CN(C)c1ccc(C(c2nnnn2CCOC(=O)Nc2ccc(Cl)cc2)N2CCOCC2)cc1 (stereo not given),-16.8,0.8%,6.0%,-7.5%
CC(NC(=O)CCCOc1ccc(Cl)cc1)c1ccccc1 (stereo not given),-8.5,0.5%,4.6%,-6.5%
Cc1ccc(NNC(=S)Nc2ccc(C(C)C)cc2)c(C)c1,0.0,-0.1%,12.3%,-8.3%
C=CCN1CN(S(=O)(=O)c2ccc(OC)cc2)c2nc3ccccc3nc21,.,?,-7.5%,0.3%
CCNc1nc(NCC)nc(N(CC)C(N)=S)n1,-2.1,2.5%,20.4%,-11.5%
O=S(=O)(/N=C(/c1ccccc1)N1CCOCC1)c1ccc(Br)cc1,.,-3.8%,-0.5%,-6.8%
OCC(CO)(CO)N=Cc1c(O)ccc2ccccc12,-0.3,-2.2%,-12.1%,-0.3%
CC(C)OCCCNc1nc(-c2ccccc2)nc2ccccc12,.,1.3%,-1.5%,19.7%
O=C(O)CCC(=O)NCc1ccc(C(=O)O)cc1,-1.1,-1.7%,-7.4%,-1.8%
COc1ccc(CCNc2nc(-c3ccco3)cc(C(F)(F)F)n2)cc1OC,3.4,-1.5%,-22.0%,-1.1%
Cc1ccc(S(=O)(=O)/N=C(/c2ccc(F)cc2)N2CCCCC2)cc1,-0.1,-2.2%,16.4%,-1.0%
CCN(C(=O)COC(=O)c1ccc(F)c(S(=O)(=O)N2CCOCC2)c1)C1CCS(=O)(=O)C1 (stereo not given),.,-2.9%,-1.7%,2.3%
COc1ccc(/C=N/Nc2cc(C)nc3ccc(Br)cc23)cc1,.,?,?,?
Cc1cc(NC(=O)[C@H](C)NC(=O)c2ccco2)ccc1Br,.,-2.2%,2.9%,-10.1%
COc1ccc(OCCSc2nc(N)cc(=O)[nH]2)cc1,-4.0,-3.0%,-2.2%,-16.4%
SMILES,GLA inh pH 4.5,Rango complex inh,Rango dissoc inh,miR-21 FLuc
COc1ccc2c(=O)cc(C(=O)O)oc2c1,-3.7,-0.4%,-7.4%,-1.1%
COC(=O)c1cc(Br)c(=O)n(CCc2ccc(F)cc2)c1,-7.0,0.6%,1.7%,0.2%
COc1ccc(NC(=O)C2Cc3ccccc3CN2C(=O)c2ccccc2)cn1 (stereo not given),-1.2,?,?,-18.9%
CCOc1ccc(S(=O)(=O)NNC(=S)Nc2ccc(Br)cc2)cc1,5.9,0.0%,4.9%,-2.9%
O=C(c1ccc(N2CCCC2=O)cc1)N1CCCCCC1,7.7,7.1%,9.8%,-5.0%
Cc1nnc(-c2cccc(Br)c2)c2cn(-c3cccc(Br)c3)nc12,-7.9,-0.2%,3.9%,-3.4%
CSc1nc(Cl)c(Br)c(Nc2c[nH]c(=O)[nH]c2=O)n1,.,-2.3%,7.7%,.
NC(CS(=O)O)C(=O)O (stereo not given),.,2.0%,0.2%,.
Cc1ccc(-n2nc3c(=O)n(CCCC(=O)NCCc4ccccc4C)nc(C)c3c2C)cc1,.,0.8%,-8.8%,3.3%
O=C1CCC(C(=O)OCc2nnc(-c3ccc(Br)cc3)o2)=NN1,.,0.5%,3.7%,.
Cc1cccc(NC(=O)c2nc[nH]c2C(=O)NCC(=O)OCc2ccccc2)c1,4.5,-5.7%,0.2%,8.4%
CC(C)NCc1cc(Br)ccc1OCc1ccccc1,-4.5,2.0%,-25.4%,-1.4%
CCc1cc(=O)oc2c3c(cc(OCC(=O)NCc4cccnc4)c12)OC(C)(C)CC3,.,-3.0%,24.6%,-13.1%
CCc1ccccc1N1CC(C(=O)Nc2cc(C)on2)CC1=O (stereo not given),.,-0.4%,6.9%,1.1%
O=C(CSc1nnc(-c2cccnc2)n1CCc1ccccc1)NCc1ccccc1,-3.0,-0.5%,-2.9%,-3.0%
COc1ccc(C(=O)N/N=C/c2c(CO)cnc(C)c2O)cc1,-4.4,?,?,13.9%
O=C(Nc1ccccc1C(=O)NCc1cccnc1)c1ccccc1F,.,-1.2%,4.5%,1.0%
CCc1cc2c(=O)c(-c3cnn(-c4ccccc4)c3)c(C(F)(F)F)oc2c(CN(C)C)c1O,-2.7,-0.7%,2.4%,-0.7%
O=[N+]([O-])c1ccc(-c2nc(=S)c3c(o2)CCCC3)cc1,-0.4,-2.1%,-0.1%,-25.0%
COc1ccccc1N1CCN(C(C)C(=O)Nc2ccc(S(=O)(=O)N3CCOCC3)cc2)CC1 (stereo not given),-3.1,-2.4%,11.9%,-0.6%
O=C(O)c1cc(NC(=O)c2ccc(Br)cc2)cc(NC(=O)c2ccc(Br)cc2)c1,.,-1.0%,-14.1%,-5.2%
COc1ccc(NS(=O)(=O)c2ccc(OC)c(NC(=O)CCC3CCCC3)c2)cc1,5.8,4.6%,-6.4%,3.6%
CCOc1cccc2c1OC1(C)CC2NC(=O)N1c1cccc(F)c1 (stereo not given),-3.1,-0.7%,2.4%,0.8%
N#C/C(=C\c1ccccc1[N+](=O)[O-])C(=O)Nc1ccc(S(N)(=O)=O)cc1,6.6,?,-13.3%,-2.4%
CCN(CC)C(=O)Cn1cc(S(=O)(=O)CC(=O)N2CCCCCC2)c2ccccc21,-3.4,0.4%,0.7%,-9.4%

# Reprinted at random: 4 records from the list
SMILES,GLA inh pH 4.5,Rango complex inh,Rango dissoc inh,miR-21 FLuc
Cc1nnc(-c2cccc(Br)c2)c2cn(-c3cccc(Br)c3)nc12,-7.9,-0.2%,3.9%,-3.4%
O=C1CCC(C(=O)OCc2nnc(-c3ccc(Br)cc3)o2)=NN1,.,0.5%,3.7%,.
CSc1nc(Cl)c(Br)c(Nc2c[nH]c(=O)[nH]c2=O)n1,.,-2.3%,7.7%,.
O=C(O)c1cc(NC(=O)c2ccc(Br)cc2)cc(NC(=O)c2ccc(Br)cc2)c1,.,-1.0%,-14.1%,-5.2%

# Next part
SMILES,GLA inh pH 4.5,Rango complex inh,Rango dissoc inh,miR-21 FLuc
Cc1cc(F)ccc1S(=O)(=O)N1CCCOC1CNC(=O)C(=O)NCc1ccc2c(c1)OCO2 (stereo not given),.,-1.8%,0.5%,-2.6%
CCn1nnc(NC(=O)COc2ccc([N+](=O)[O-])cc2)n1,1.8,-0.4%,-12.4%,-4.1%
CCCCN(C(=O)CN1C(=O)C2CC=CCC2C1=O)c1c(N)n(CCC)c(=O)[nH]c1=O (stereo not given),0.4,2.0%,0.5%,-1.8%
Cc1cc(C)n2nc(SCC(=O)c3ccc[nH]3)nc2n1,-10.9,1.3%,-18.1%,-11.1%
COc1ccc(-c2nn(-c3ccccc3)cc2/C=N/Nc2ccc3ccccc3n2)cc1OC,0.7,-2.5%,-8.9%,9.5%
COc1ccc(CCNC(=O)COc2ccc(S(=O)(=O)N3CCOCC3)cc2)cc1OC,-3.3,4.0%,-2.0%,-5.1%
COC(=O)CCC(=O)Nc1cc(Cl)cc(Cl)c1,-17.5,-0.2%,4.6%,-1.4%
Cc1cccc(C(=O)Oc2ccc(/C=N/O)cc2)c1,-3.2,1.2%,0.5%,-51.0%
Cc1ccc(S(=O)(=O)N2CCN(Cc3cc4c(cc3Br)OCCO4)CC2)cc1,.,2.9%,6.7%,.

# The list is partial; count on the stated rates, not on these rows.
